# Vaccinia pol inh: blocks vaccinia virus processive DNA synthesis; in vitro processive DNA synthesis, absorbance read-out; stronger effect = lower value; some inactives read as strong as hits; normalized absorbance, % (test concentration not listed); 0.94% of 46,000 active; AID 493162;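 active = replicate mean up to 90% and picked by the depositor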;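 note: 100% = median of the test wells of a plate; 100 nL library stock went into each well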
# The depositor's hits bear a star. This is a subset; count on the stated rates, not on these rows.
1) O=C(Oc1ccccc1-c1ccccc1)c1cncc(Br)c1
  Vaccinia pol inh = 101

2) CCOC(=O)Cc1csc(NC(=O)c2ccccc2)n1
  Vaccinia pol inh = 100

3) CC(C)Cn1c2ccccc2c2ccccc21
  Vaccinia pol inh = 98

4) CC1CCc2nn(CC(=O)N3CCCC3)cc2C1 (stereo unspecified)
  Vaccinia pol inh = 94

5) c1coc(-c2cn3ccc4ccccc4c3n2)c1
  Vaccinia pol inh = 84*

6) CCOC(Cn1c(SCc2c(F)cccc2Cl)nc2ccccc2c1=O)OCC
  Vaccinia pol inh = 99

7) CCOC(=O)c1sc(N)cc1C
  Vaccinia pol inh = 98

8) Cc1ccc(N(Sc2ccc(Cl)cc2)C2C=CS(=O)(=O)C2)cc1 (stereo unspecified)
  Vaccinia pol inh = 86

9) Cc1oc(C(C)(C)C)c(CO)c1C(=O)O
  Vaccinia pol inh = 104

10) CC(=O)N=C1c2ccccc2CN1c1cc(Cl)cc(Cl)c1
  Vaccinia pol inh = 105

11) CCC1SC2=NC(C)=C(C(=O)OC)C(c3ccccc3Br)N2C1=O (stereo unspecified)
  Vaccinia pol inh = 100

12) c1ccc(-c2[nH]ncc2CNCc2ccco2)cc1
  Vaccinia pol inh = 104

13) Brc1cccc(Oc2ncnc3sccc23)c1
  Vaccinia pol inh = 92

14) CCN(CC)C(=O)/C=C/c1ccc(-c2cc(Cl)ccc2Cl)o1
  Vaccinia pol inh = 112

15) CN1C(=O)/C(=C2\SC(=S)N(CC3CCCO3)C2=O)c2ccccc21 (stereo unspecified)
  Vaccinia pol inh = 100

16) c1ccc(Oc2ncnc3sc4c(c23)CCCC4)cc1
  Vaccinia pol inh = 107

17) NC(=O)COC(=O)c1cc2ccccc2cc1O
  Vaccinia pol inh = 82

18) Cc1cc2c(c(SCC(=O)N(C)c3ccccc3)n1)C(=O)OC2
  Vaccinia pol inh = 99

19) CC1(C(N)=O)CCCC1
  Vaccinia pol inh = 113

20) COc1ccccc1C1=NOC(COC(=O)c2ccc3ccccc3n2)C1 (stereo unspecified)
  Vaccinia pol inh = 100

21) O=[N+]([O-])c1cc(O)c(O)c([N+](=O)[O-])c1
  Vaccinia pol inh = 98

22) O=C(c1cnn(-c2ccccc2)c1-n1cccc1)N1CCCCC1
  Vaccinia pol inh = 102

23) O=C1CC(c2csc(-c3ccccc3)n2)C2(CCCCC2)O1 (stereo unspecified)
  Vaccinia pol inh = 100

24) Cc1nc(CSc2ccccc2)cc(=O)[nH]1
  Vaccinia pol inh = 113

25) COC(=O)CC1C(=O)NCCN1C(=O)NS(=O)(=O)c1ccc(C)cc1 (stereo unspecified)
  Vaccinia pol inh = 85

26) Clc1ccc(CN=C2Nc3ccccc3CS2)cc1
  Vaccinia pol inh = 128

27) Fc1ccc(/C=C/c2cccc3ccccc23)cc1
  Vaccinia pol inh = 94

28) COc1ccc2c(c1)n([O-])c1c([n+]2=O)CCC1
  Vaccinia pol inh = 100

29) CC(C)(C)c1nccc(-c2nn(-c3ccc(F)cc3)ccc2=O)n1
  Vaccinia pol inh = 100

30) O=C(O)COc1ccccc1F
  Vaccinia pol inh = 91

# Of the compounds above, 2 have a tert-butyl group.
9) Cc1oc(C(C)(C)C)c(CO)c1C(=O)O
  Vaccinia pol inh = 104

29) CC(C)(C)c1nccc(-c2nn(-c3ccc(F)cc3)ccc2=O)n1
  Vaccinia pol inh = 100

# Back to the main list with the 3 entries that preceded the break.
28) COc1ccc2c(c1)n([O-])c1c([n+]2=O)CCC1
  Vaccinia pol inh = 100

29) CC(C)(C)c1nccc(-c2nn(-c3ccc(F)cc3)ccc2=O)n1
  Vaccinia pol inh = 100

30) O=C(O)COc1ccccc1F
  Vaccinia pol inh = 91

31) Fc1ccc(Cn2ccnc2-c2ccc(C(F)(F)F)cc2)cc1
  Vaccinia pol inh = 89

32) NC(=S)Nc1nc2ccccc2[nH]c1=O
  Vaccinia pol inh = 100

33) O=C(/C=C/c1ccco1)C1CC1
  Vaccinia pol inh = 99

34) CCc1ccc(C(=O)/C=C2\Sc3ccccc3NC2=O)cc1
  Vaccinia pol inh = 97

# Structural class, the entries above containing an NH in an aromatic ring (three)
12) c1ccc(-c2[nH]ncc2CNCc2ccco2)cc1
  Vaccinia pol inh = 104

24) Cc1nc(CSc2ccccc2)cc(=O)[nH]1
  Vaccinia pol inh = 113

32) NC(=S)Nc1nc2ccccc2[nH]c1=O
  Vaccinia pol inh = 100
